Screens deposited in PubChem BioAssay by several laboratories.
A1 inh: caspase 3/7 activation in MEF A1-2A-BIM cells, primary screen, A1 inhibitor project, cell-based, luminescence, HTS. caspase activation, % (no concentration beside the values). AID 2462, 2010. 330,000 tested, 0.066% active. Caspase-Glo 3/7 luminescence, 3 h; percent of clofoctol response, vehicle zero;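 active means over half of replicate activation scores above 10%, or exactly half above 10 with the replicate mean above 10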;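 further: wells of about 30 µL received 50 nL stock; many hits fall short of the cut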
AF4-AF9 inh: inhibitors of AF4 peptide binding to AF9, primary screen, biochemical, AlphaScreen, biotin-AF4 peptide, FLAG-AF9, single point; inhibition, % at 10 µM; 350,000 tested, 0.47% active; AID 651704, 2012;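 active means every replicate reaching a set inhibition limit, whatever the replicate mean, cut at about 25% in these data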;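 further: 0% = plate neutral control median and 100% = total signal loss; the record names both 10 and 1 µM as test concentration; the first replicate is given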
Target sequence (P42568 whole entry, looked up): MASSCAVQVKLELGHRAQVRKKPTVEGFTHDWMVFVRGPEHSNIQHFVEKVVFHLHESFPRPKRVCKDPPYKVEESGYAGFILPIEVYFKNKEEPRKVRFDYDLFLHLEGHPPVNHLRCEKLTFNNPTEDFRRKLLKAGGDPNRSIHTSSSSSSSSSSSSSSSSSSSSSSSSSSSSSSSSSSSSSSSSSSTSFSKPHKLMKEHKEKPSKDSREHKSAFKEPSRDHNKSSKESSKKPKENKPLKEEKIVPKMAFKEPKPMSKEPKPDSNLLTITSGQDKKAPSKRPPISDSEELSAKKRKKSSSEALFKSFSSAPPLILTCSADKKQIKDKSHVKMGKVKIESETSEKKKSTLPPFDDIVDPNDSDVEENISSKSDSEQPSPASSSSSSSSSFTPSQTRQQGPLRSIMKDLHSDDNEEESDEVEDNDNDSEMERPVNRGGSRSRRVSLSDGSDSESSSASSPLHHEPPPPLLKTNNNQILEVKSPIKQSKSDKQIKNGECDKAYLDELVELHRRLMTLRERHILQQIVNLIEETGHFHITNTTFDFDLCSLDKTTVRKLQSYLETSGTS
Ecoli rRNA inh: reduced GFP signal of wild-type E. coli, primary screen, bacterial rRNA inhibitor project, GFP/RFP fluorescence, OD600, single point | E. coli WT GFP vs humanized-ribosome RFP mutants, 24 h; hits give low values; DMSO median 0, no signal -100 | GFP signal change (wild-type ribosome), % (concentration not given with the values) | 350,000 tested, 1.6% active;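 active means significant combined selectivity score with lowered wild-type GFP, culture density cut under 30%, mutant RFP and density less affected; inactive means any of these conditions unmet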; further: one replicate is shown; some compounds called inactive have numbers as strong as hits
FGF22 binding: binders of human FGF22 protein, primary screen, FGF22 synaptogenesis inhibitor project, biophysical, thermal shift, single point; Fibroblast growth factor 22 (Homo sapiens), Q9HCT0; recombinant FGF22 thermal shift, SYPRO orange fluorescence; percent of sucrose octasulfate shift, DMSO zero; calls only at 9.99 µM; 340,000 tested, 1.5% active;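 active means melting point raised past a set limit in the mean and every replicate; three in four hits are not shown here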
Target sequence (Q9HCT0 whole entry, looked up): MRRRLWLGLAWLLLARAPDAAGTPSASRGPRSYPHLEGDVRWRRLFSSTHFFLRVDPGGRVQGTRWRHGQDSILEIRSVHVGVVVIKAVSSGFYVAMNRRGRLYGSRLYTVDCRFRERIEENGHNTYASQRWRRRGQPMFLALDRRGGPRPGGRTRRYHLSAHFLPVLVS
Beta apoptosis: inhibitors of cytokine-induced beta cell apoptosis, primary screen, luminescence | INS-1E cytokine-induced death, ATP luminescence, 48 h; percent of positive-control rescue, neutral wells zero | protection from apoptosis, % (concentration not given with the values) | 300,000 tested, 0.8% active;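 active means all replicates at 75% or more, or half of them and the mean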;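 further: 0% = cytokine-treated negative control wells and 100% = positive control rescue; higher means more ATP so stronger rescue from cytokine killing; wells of about 40 µL received 100 nL stock; the first replicate is given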
Ecoli growth: E. coli growth inhibition, primary screen, OD600; Escherichia coli growth, 23 h; hits give low values; OD600 absorbance (no concentration beside the values); 330,000 tested, 0.21% active;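 active means OD600 absorbance below the run mean of sample wells minus 3.6 SD, in any replicate, cut at about 0.56 in these data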;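 further: stock transfer was 300 nL into about 60 µL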
UCH37 inh: inhibitors of human UCH37 deubiquitinase, primary screen, biochemical, Ub-AMC cleavage, fluorescence; purified proteasome/UCH37; inhibition, % (test concentration not listed); 330,000 tested, 0.33% active; AID 588478, 2011;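 active means mean of two replicates above 20%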;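 further: 0% = compound-free wells with enzyme and 100% = wells lacking proteasome; stock transfer was 100 nL into about 20 µL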
Target sequence (Q9Y5K5 whole entry, looked up): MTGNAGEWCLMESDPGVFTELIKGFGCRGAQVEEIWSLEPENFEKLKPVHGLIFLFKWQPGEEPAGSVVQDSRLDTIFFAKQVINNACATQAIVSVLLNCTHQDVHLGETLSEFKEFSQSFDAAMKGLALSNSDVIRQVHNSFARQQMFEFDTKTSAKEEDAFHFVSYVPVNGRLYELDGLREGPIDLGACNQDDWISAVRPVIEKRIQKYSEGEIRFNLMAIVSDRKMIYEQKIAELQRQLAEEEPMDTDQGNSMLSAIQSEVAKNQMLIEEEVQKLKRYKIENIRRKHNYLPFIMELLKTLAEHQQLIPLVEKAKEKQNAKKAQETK
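Schedule: 30 min plus 25 min, room temperature / Material: human UCH37 within purified proteasomes / Technique: AMC fluorescence intensity at 355/460 nm / Buffer or medium: pH 7.4 Tris-HCl (50 mM) with ovalbumin, ATP-MgCl2, DTT / Controls: wells without proteasome as full block, compound-free enzyme plus substrate as uninhibited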
T cruzi repl: inhibitors of intracellular T. cruzi growth, primary screen, luminescence, NIH3T3 host cells; T. cruzi beta-gal in NIH3T3, 90 h; inhibition, % (test concentration not listed); 300,000 tested, 1.4% active;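 active means mean inhibition across valid replicates above about 55%, limit read from the data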;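 further: signal also drops with host cell toxicity which is not excluded here; 0% = plate median of DMSO wells and 100% = zero luminescence signal; higher percent means less beta-gal luminescence so fewer parasites; stock transfer was 50 nL into about 50 µL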
Ecoli rRNA inh OD600: recorded beside Ecoli rRNA inh, whose call it bears; OD600 change, %; measured here: OD600 growth;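 optical density of the mix in the first replicate; 0 = DMSO median and -100 = no signal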
Ecoli rRNA inh RFP: further read-out of Ecoli rRNA inh, marked with its call; RFP signal change, %; measured here: RFP humanized mutant strains;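 first replicate; 0 = DMSO median and -100 = no signal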
Starred values were filed as active, the others as inactive; i = inactive; . = not tested or not shown. Only part of the results is shown, so the mix of outcomes need not match the whole.

Values in the order – A1 inh | AF4-AF9 inh | Ecoli rRNA inh | Ecoli rRNA inh OD600 | Ecoli rRNA inh RFP | FGF22 binding | Beta apoptosis | Ecoli growth | UCH37 inh | T cruzi repl
1	CC(=O)N1c2ccc(S(=O)(=O)N3CCCC(C(=O)Nc4ccc(F)cc4)C3)cc2CC1C (stereo not given)
→ -0.1 | 3.7 | -1.7 | -2.6 | 1.4 | i | 7.9 | 0.717 | 8.9 | 5.2
2	CCOC(=O)c1cc(C)nc(N2CCCCC2)c1C#N
→ 0.4 | . | -20.6* | -6.9* | -5.0* | i | -16.1 | 0.702 | -2.6 | 14.5
3	CCN(CC)c1ccc(NC(=O)C(C)C)cc1
→ 1.5 | . | . | . | . | . | 0.4 | 0.648 | 3.0 | -1.9
4	CCCCCN(C(=O)CCC(=O)OC(C)C(=O)Nc1cccc(C#N)c1)c1c(N)n(CCCC)c(=O)[nH]c1=O (stereo not given)
→ 0.0 | -5.7 | -0.3 | 1.3 | -2.2 | i | 3.2 | 0.623 | 3.8 | -7.9
5	O=C(CCCN1C(=O)C2CCCCN2C1=O)N1CCN(c2ccc([N+](=O)[O-])cc2)CC1 (stereo not given)
→ 0.1 | . | . | . | . | . | 4.1 | 0.745 | 3.9 | 6.5
6	O=C(NCCOc1ccccc1)C(=O)c1c[nH]c2ccccc12
→ -0.9 | -3.4 | -24.8 | -18.7 | 24.0 | i | -4.3 | 0.627 | 6.1 | 3.2
7	CCCNC(=O)C(Cc1cccc(C#N)c1)NC(=O)c1cccc([N+](=O)[O-])c1 (stereo not given)
→ 0.7 | . | . | . | . | . | -9.7 | 0.635 | -2.4 | .
8	N#C/C(=C\c1cccc(Cl)c1)C(=O)c1ccccc1
→ 1.8 | 0.6 | 4.3 | 0.2 | 4.3 | i | -13.3 | . | . | -0.6
9	Cc1ccc(Cn2ccc(NC(=O)c3cc(C)on3)n2)cc1
→ 0.2 | . | . | . | . | . | -10.9 | 0.708 | 0.0 | 10.4
10	CN(C)c1cc[n+](CC(=O)Nc2cc(C(F)(F)F)ccc2Cl)cc1
→ 1.2 | 2.6 | 7.0 | 0.2 | -1.1 | i | -2.6 | 0.627 | 1.2 | -16.2
11	O=C(Nc1ccccc1)N1CCCC(CNS(=O)(=O)Cc2ccccc2)C1 (stereo not given)
→ -1.3 | 0.1 | 8.6 | 7.2 | 2.5 | i | -4.9 | 0.664 | 0.3 | -2.5
12	CCOC(=O)CC(NCc1ccc(OC)c(OCC)c1)c1ccc(C)cc1 (stereo not given)
→ -0.5 | 0.8 | 7.4 | 1.0 | 2.5 | . | -12.8 | 0.731 | -0.7 | 5.4
13	CCc1nnc(NC(=O)CCC(=O)NC2CCCCC2)s1
→ -0.7 | . | . | . | . | . | -3.4 | 0.63 | 3.5 | -7.6
14	CCN(CC)C(=O)CC(c1ccc2c(c1)OCO2)c1c(OC)cc(OC)c2ccc(=O)oc12 (stereo not given)
→ -0.5 | -1.0 | -3.7 | -3.6 | -1.4 | i | -6.3 | 0.712 | -1.7 | -4.5
15	CC(C)CN(C(=O)c1cc2ccccc2o1)c1c(N)n(CC(C)C)c(=O)[nH]c1=O
→ 0.7 | . | . | . | . | . | 0.3 | 0.728 | 1.3 | -12.7
16	COc1ccc(S(=O)(=O)NNC(=O)Nc2ccc(C)cc2)c(OC)c1
→ 1.2 | -0.5 | 2.0 | 2.2 | -2.2 | i | -10.1 | 0.685 | 0.6 | -8.6
17	COc1ccc(NC(=O)Nc2nnc(Cc3ccc(F)cc3)s2)cc1
→ -0.7 | -3.8 | 2.7 | 8.7 | -0.3 | i | -1.2 | 0.697 | 2.0 | -24.3
18	CC(C)Nc1nnc(SCc2cc(=O)n3ccsc3n2)s1
→ -0.6 | -2.3 | 7.4 | 9.7 | 2.8 | i | 1.2 | 0.684 | -3.6 | -7.5
19	Cc1cc2oc(=O)cc(COC(=O)c3n[nH]c4ccccc34)c2cc1C
→ -0.2 | . | . | . | . | . | -2.5 | 0.772 | -6.8 | 18.1
20	CCOC(=O)C1=C(COC(=O)CCOc2ccc(C)cc2)NC(=O)NC1C (stereo not given)
→ 0.5 | -0.1 | 9.1 | 7.0 | 1.0 | i | -29.1 | 0.691 | 3.9 | 0.8
21	O=C(CCc1c[nH]c2ccccc12)OCC(=O)N1CCN(S(=O)(=O)c2ccccc2)CC1
→ 0.5 | -1.0 | -0.9 | -1.3 | -2.5 | i | -2.1 | 0.65 | -1.6 | -7.0
22	Cc1ccc(NC(=O)[C@H](Cc2ccccc2)NC(=O)[C@@H]2Cc3ccccc3CN2)c(C)c1
→ 0.1 | 5.0 | 2.4 | -6.1 | -2.1 | i | 6.7 | 0.7 | 1.4 | -0.5
23	COc1cc(/C=C/C(=O)Nc2cc(C(F)(F)F)ccc2Cl)cc(OC)c1OC
→ -0.2 | . | . | . | . | . | 5.7 | 0.714 | -25.5 | -1.2
24	CC(CCN1CCN(c2ccccn2)CC1)c1ccccc1 (stereo not given)
→ 0.2 | 4.3 | 10.7 | 5.4 | 1.8 | i | -4.6 | 0.678 | 0.4 | -38.9
25	CSc1cccc(N2CC(C(=O)NCCN3C(=O)S/C(=C\c4cccnc4)C3=O)CC2=O)c1 (stereo not given)
→ 0.3 | -4.4 | 7.2 | 9.8 | 0.2 | i | 5.2 | 0.688 | 4.8 | 3.9
26	COc1ccc(N(C(C)C(=O)N/N=C/c2cccnc2)S(C)(=O)=O)cc1 (stereo not given)
→ -0.3 | -2.0 | 0.0 | -0.5 | -5.8 | i | -4.2 | . | . | -11.7
27	Cc1nnc(SCC(=O)Nc2ccc(N3CCN(S(C)(=O)=O)CC3)cc2)o1
→ -0.1 | -3.2 | 1.9 | -1.3 | -1.3 | i | 5.8 | 0.604 | 1.9 | -1.3
28	COc1cc(CN2CCC(C(N)=O)CC2)ccc1OCc1ccccc1
→ -0.6 | 4.0 | 0.9 | 4.8 | 0.4 | i | -3.6 | 0.609 | 4.8 | 7.5
29	Cc1cc(C)c(Nc2ncccc2C(=O)O)c(C)c1
→ 0.4 | -1.1 | 2.9 | -0.9 | -4.1 | i | -0.1 | 0.671 | 4.2 | 4.0
30	COc1cc(C(CC(=O)Nc2cccc(C)n2)N2Cc3ccccc3C2=O)cc(OC)c1OC (stereo not given)
→ -1.0 | -1.8 | 8.2 | 11.6 | -1.7 | i | -1.0 | 0.704 | 2.6 | 7.4

Along the list, from the results shown:
Ecoli rRNA inh RFP, compounds 17 to 20 → -0.3, 2.8, ., 1.0
T cruzi repl, compounds 17 to 20 → -24.3, -7.5, 18.1, 0.8
Ecoli rRNA inh OD600, compounds 17 to 20 → 8.7, 9.7, ., 7.0

(cont.)
Values in the order – A1 inh | AF4-AF9 inh | Ecoli rRNA inh | Ecoli rRNA inh OD600 | Ecoli rRNA inh RFP | FGF22 binding | Beta apoptosis | Ecoli growth | UCH37 inh | T cruzi repl
31	Cn1c(=O)[nH]c(=O)c2c1nc1n2CCS1
→ 2.0 | -1.7 | 19.9 | 11.1 | -0.7 | i | -3.9 | 0.719 | 1.6 | -2.9
32	CCCCCC(=O)Nc1ccc(N2CCN(S(C)(=O)=O)CC2)cc1
→ 1.7 | . | . | . | . | . | -0.5 | 0.689 | 2.6 | 4.7
33	CCC(C)NC(=O)c1ccc(CNS(=O)(=O)c2ccc3c(c2)C(C)(C)C(=O)N3C)cc1 (stereo not given)
→ 0.5 | -2.7 | 5.6 | 15.9 | -1.4 | i | -1.0 | 0.728 | 2.0 | -10.2
34	CCOc1ccc(N2C(=O)C3CC(C)=C(C)CC3C2=O)c([N+](=O)[O-])c1 (stereo not given)
→ 0.8 | . | . | . | . | . | -8.6 | 0.687 | 4.7 | 12.5
35	Cc1cc(C)c(OCC(=O)NCC2COc3ccccc3O2)c(C)c1 (stereo not given)
→ 2.0 | -16.8 | -34.4 | -72.4 | -8.1 | i | 3.9 | 0.655 | 1.7 | .
36	Cc1ccsc1CN(C)C(=O)CN1C(=O)NC2(CCCCC2C)C1=O (stereo not given)
→ 0.0 | 2.3 | 2.9 | 3.9 | -0.4 | i | -4.5 | 0.656 | 1.6 | .
37	COc1cc(/C=C/C(=O)c2ccc(C)c([N+](=O)[O-])c2)cc(OC)c1O
→ -0.4 | . | . | . | . | . | . | 0.709 | 5.1 | -23.7
38	CCOc1ccc(CC2NCCc3cc(OCC)c(OCC)cc32)cc1OCC (stereo not given)
→ -0.8 | 3.5 | 5.5 | -5.2 | 4.0 | i | -7.3 | 0.695 | -12.0 | 35.0
39	NC(=O)[C@@H]1CCCN1Cc1nc(-c2ccccc2)no1
→ -0.2 | -5.5 | 4.3 | 8.0 | -2.6 | i | 0.2 | 0.675 | 3.0 | 18.6
40	CC1CCCN(c2ccc(N)cc2C(N)=O)C1 (stereo not given)
→ 0.2 | 2.9 | . | . | . | . | 0.8 | 0.674 | 5.3 | 0.6
41	Cc1noc(C)c1CSc1ccc2ccccc2n1
→ 0.9 | . | . | . | . | . | -0.1 | 0.675 | 0.2 | -13.5
42	CCC(C)(CCNC(=O)Cc1ccccc1)c1ccccc1OC (stereo not given)
→ 0.6 | -0.4 | -23.0 | -45.7 | -9.4 | i | 3.3 | 0.674 | 4.5 | 1.4
43	COc1cccc(-c2cc3nc4c(c(NCC(C)(C)CN(C)C)n3n2)CCCC4)c1
→ 1.3 | 16.5 | -52.2 | -77.1 | -14.4 | i | 20.2 | 0.607 | -21.3 | 60.8*
44	COC(=O)/C(N=Nc1cccc(C(F)(F)F)c1)=C(\C)O
→ -0.7 | . | . | . | . | . | 1.8 | . | 43.3* | -2.5
45	COc1ccccc1/C=C/C1=NC(=C\C=C/c2ccccc2)/C(=O)O1
→ 0.7 | -2.0 | -17.1 | -13.9 | -4.0 | i | 4.7 | . | -1.5 | -25.9
46	CCn1c(C(=O)NC(C)c2ccc3c(c2)OCCO3)cc2sccc21 (stereo not given)
→ -0.3 | 3.8 | -16.0 | -18.3 | -11.2 | i | -1.0 | 0.706 | 1.3 | -1.1
47	O=C(Nc1ccc2c(c1)OCCO2)Nc1ccc2c(c1)OCO2
→ -4.7 | -12.8 | 10.9 | 9.0 | 4.3 | i | -4.9 | 0.652 | 1.0 | 4.2
48	Cc1cc(C)cc(NC(=O)CSc2nnc(NC(=O)C3CC3)s2)c1
→ 0.0 | -4.2 | 7.8 | 9.0 | -1.5 | i | -3.6 | 0.674 | 2.1 | 0.6
49	CC1CN(Cc2nc3ccccc3c(=O)[nH]2)CC(C)O1 (stereo not given)
→ 0.3 | -1.5 | 11.1 | 9.3 | 1.4 | i | -1.2 | 0.726 | 3.3 | 6.7
50	CC(C)c1ccc(CN(C(=O)c2cc3ccccc3oc2=O)C2CCS(=O)(=O)C2)cc1 (stereo not given)
→ -0.1 | . | . | . | . | . | -4.4 | 0.638 | 1.4 | -4.1

UCH37 inh, what is marked active above.
cpd | smiles | A1 inh | AF4-AF9 inh | Ecoli rRNA inh | Ecoli rRNA inh OD600 | Ecoli rRNA inh RFP | UCH37 inh
44 | COC(=O)/C(N=Nc1cccc(C(F)(F)F)c1)=C(\C)O | -0.7 | . | . | . | . | 43.3*
